Compound activity deposited in PubChem BioAssay by National Center for Advancing Translational Sciences (NCATS).
HPGD inh: HPGD (human) dehydrogenase inhibition | P15428 | actives 4.3% (n = 150,000) | AID 894 | Potency, µM, for the others: top-dose activity change, negative = inhibition, hits mostly inhibitors | purified HPGD, NADH fluorescence kinetic, PGE2 substrate; active = well fitted inhibition curve with a large enough effect (not every such curve was filed as active); inconclusive = small, poorly fitted or top-dose-only effect, or another doubt; inactive = no such curve, though single readings can be large or run the other way;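 also: top concentration of the series not given in the record; plate controls included wells without enzyme; inactives centre near -10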
Target sequence (P15428 whole entry, looked up): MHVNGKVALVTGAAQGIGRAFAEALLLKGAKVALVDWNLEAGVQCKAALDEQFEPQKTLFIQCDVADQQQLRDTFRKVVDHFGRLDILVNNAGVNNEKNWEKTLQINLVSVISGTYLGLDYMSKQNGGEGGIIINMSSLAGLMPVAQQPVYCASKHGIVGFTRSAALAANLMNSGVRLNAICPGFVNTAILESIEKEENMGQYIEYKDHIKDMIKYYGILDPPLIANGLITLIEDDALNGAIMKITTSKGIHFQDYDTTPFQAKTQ
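NADH formation kinetics: reaction with 30 uM PGE2 and 1 mM NAD+ (final), 20 nM enzyme, Tris-HCl pH 8 with Tween 20, after 15 min compound preincubation at room temperature. Fluorescence change, last versus first of five reads.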
Numbers without * were called inactive; ? = inconclusive; & = joins results of further samples. % is scaled to controls: 0 for no effect and ±100 for the full control effect; potency is read from the fitted curve at half-maximal effect. Not all compounds are listed; rates above refer to the full screens.

HPGD inh	SMILES
-13%	CCN1CCN(C(c2nnnn2Cc2ccc3c(c2)OCO3)C(C)C)CC1 (stereo not drawn)
0%	N#Cc1ccc(CN2CCCC3(CCN(C(=O)c4ccco4)CC3)C2)cc1
2%	CCn1c(COc2ccc(OC)cc2)nnc1SCC(=O)Nc1cc(OC)ccc1OC
-22%	O=c1cc(Cn2nnc(-c3ccc(Cl)cc3)n2)nc2sccn12
-4%	CCNC(=S)Nc1cc(Cl)ccc1Oc1ccccc1
-23%	Cc1ccc2nc(NC(=O)C3CCCN(S(=O)(=O)c4cccc5nsnc45)C3)sc2c1 (stereo not drawn)
-6%	CCCc1nnc(NC(=O)CN2C(=O)c3ccccc3C2=O)s1
-28%	CN(C1CCCCC1)S(=O)(=O)c1ccc(NC(=O)c2ccco2)cc1
-5%	CC1CN(C(=S)NC(=O)c2cccc([N+](=O)[O-])c2)CC(C)O1 (stereo not drawn)
-16%	c1ccc(-c2nnc(-c3ccncc3)o2)cc1
-4%	CCCCc1nc2ccccc2c(C(=O)O)c1C
-15%&-9%&-12%	CCc1cccc2c3c([nH]c12)C(CC)(CC(=O)O)OCC3 (stereo not drawn)
-12%	COc1ccc(NC(=O)c2nc3ccccc3s2)cc1
-6%	COc1ccc(C(=O)NN2C(=O)C3C(c4ccccc4)C=CC(c4ccccc4)C3C2=O)cc1 (stereo not drawn)
-28%	Cc1ccc2nc(NC(=O)c3cccs3)sc2c1
?	CCC(C)NC(=O)c1cnn2c(C)c3c(nc12)CCCC3 (stereo not drawn)
-8%	N#C/C(=C/c1ccc(N2CCOCC2)o1)c1nc2ccccc2[nH]1
-9%	CCOC(=O)c1cc(-c2cc3ccccc3o2)n[nH]1
-7%	CCCc1cc(C(=O)NCc2cccnc2)no1
-27%	CCCCNC(=O)c1onc(CSc2ccc(F)c(F)c2)c1C(=O)O
-6%	O=C(NCCN1CCOCC1)C(=O)NCC1CCCO1 (stereo not drawn)
-13%	O=C(O)CC1(C(=O)O)CCCCC1
-4%	Cc1ccccc1COC[C@H](CC(C)C)N1CCN(C(=O)c2cccc(C(F)(F)F)c2)CCC1=O
1%	CC1(C)CCCC2=C1CC1C(=O)N(c3ccccc3)C(=O)C1C2 (stereo not drawn)
0%	CCCCc1nc2c(c3c1C[C@H](C)OC3)CN(C(=O)NCCc1c[nH]c3ccccc13)CC2
?	COc1ccc(C2=Nn3c(nnc3-c3ccco3)SC2)cc1OC
0%	COc1ccc(N2CCN(CCNC(=O)C3CCN(S(=O)(=O)c4cccs4)CC3)CC2)cc1
-5%	Cc1cccc(N2CCN(C(=O)NCc3ccc(Cl)cc3)CC2)c1
1%	c1ccc(CNc2ccc(CNc3ncn[nH]3)cc2)cc1
-8%	COc1ccc(C(O)c2nccn2C)cc1 (stereo not drawn)

HPGD inh	SMILES
-11%	O=C(NC(=S)N1CCN(c2c(Cl)cccc2[N+](=O)[O-])CC1)c1cccs1
?	CCOC(=O)c1cc2cc(-c3c(C(=O)OCC)oc4cc(O)cc(O)c4c3=O)ccc2o1
0%	O=C(CNC(=O)c1ccco1)OCc1c(F)cccc1Cl
0%	CC(C)c1nnc(NC(=O)CN(C)S(=O)(=O)c2ccc3c(c2)OCCO3)s1
-6%&-4%	C=CC(=O)OCCOCCOCCOCCOC(=O)C=C
-15%	CCCCc1c(O)nc(SCC(=O)NC(C)(C)C)n(-c2ccccc2C)c1=O
0%	CC1(C(=O)NC2CCCCCCC2)CCC(=O)N1Cc1cccs1 (stereo not drawn)
-7%	COc1ccc(NC(=O)CSc2nc(C)cc(C(F)(F)F)n2)cc1
?	CCOc1cccc(-c2nc3cc(C)ccc3o2)c1
?	COc1ccc(-c2nc(C#N)c(NCc3cccnc3)o2)cc1OC
-13%	Cc1cc(SCC(=O)OCC(=O)N2CCN(C(=O)c3ccco3)CC2)c(C)cc1Br
-7%	Cc1c(NC(=O)C(C)Sc2nnc(-c3ccccc3)o2)c(=O)n(-c2ccccc2)n1C (stereo not drawn)
-9%	Cc1ccc2c(c1)c1c3n2CCCN(Cc2ccccc2)C3CCC1 (stereo not drawn)
-26%	Cc1noc(C)c1C(=O)N1CCCc2ccccc21
-17%	O=S(=O)(Nc1nc2ccccc2nc1N1CCN(c2ccccc2F)CC1)c1ccc(Cl)cc1
-17%	O=C(OCc1cc2ccccc2[nH]c1=O)c1cccs1
-7%	CC(=O)c1cccc(NC(=O)N2CCCC2C(=O)Nc2cccc(C)c2)c1 (stereo not drawn)
?	CC1CCCC(C)N1C(=O)COC(=O)c1ccc(O)cc1 (stereo not drawn)
-15%	CC(=O)O[C@H]1CSC[C@H]1NC(=O)c1ccccc1
-26%	O=c1c2cc(N3CCOCC3)ccc2[nH]c(=S)n1CC1CCCO1 (stereo not drawn)
-13%	S=C(Nc1ccc(Cl)cc1Cl)Nc1ccccc1Oc1ccccc1
16µM*	Cc1c(C(=O)N2CCCCC2)nnn1-c1nonc1N
-8%	CC(=O)Nc1nc2ccccc2n1Cc1ccccc1C
-3%	O=C(O)CCSc1ncnc2nc[nH]c12
2%	NNC(=O)COc1ccccc1F
0%	O=C(COC(=O)c1cc(Cl)cc(Cl)c1)NCCN1C(=O)CSC1=O
-13%	Clc1ccc(OCCCCCN2CCCC2)c(Br)c1
-27%	O=C(N/N=C\c1ccc(OC(=O)c2cccs2)cc1)c1ccc(Cl)cc1
-21%	CCOc1ccccc1N1CCN(C(=O)CCCN2C(=O)c3cccc4cccc(c34)C2=O)CC1
-12%	CN1CCN(CC(=O)N2CCn3c4c(c5cc(C6CCCCC6)ccc53)CCCC42)CC1 (stereo not drawn)

7 compounds drawn at random from those above:
HPGD inh	SMILES
-17%	O=S(=O)(Nc1nc2ccccc2nc1N1CCN(c2ccccc2F)CC1)c1ccc(Cl)cc1
-6%&-4%	C=CC(=O)OCCOCCOCCOCCOC(=O)C=C
0%	O=C(COC(=O)c1cc(Cl)cc(Cl)c1)NCCN1C(=O)CSC1=O
-7%	COc1ccc(NC(=O)CSc2nc(C)cc(C(F)(F)F)n2)cc1
-3%	O=C(O)CCSc1ncnc2nc[nH]c12
-7%	CC(=O)c1cccc(NC(=O)N2CCCC2C(=O)Nc2cccc(C)c2)c1 (stereo not drawn)
0%	CC1(C(=O)NC2CCCCCCC2)CCC(=O)N1Cc1cccs1 (stereo not drawn)

Additional compounds
HPGD inh	SMILES
-9%	O=C(CCC1CCCC1)N1CCN(C(=O)c2ccco2)CC1
-2%	CCN(CC(=O)Nc1ccc2c(c1)OCCO2)CC(=O)Nc1cc(C)on1
-5%	CCOC(=O)N/N=C/c1cn(Cc2ccc(Cl)cc2)c2ccccc12
-3%	Cc1cc(C)cc(NC(=S)NCCCN2CCOCC2)c1
-5%	Cc1c(C)n(C(=O)CSc2nncn2C)c2ccccc12
-10%	COc1ccc2cc(-c3csc(-c4cccnc4)n3)ccc2c1
-3%	O=C(NCCOc1ccccc1)c1ccc2c(c1)OCO2
?	COc1ccc(-c2nnco2)cc1OC
-22%	Cc1[nH]c2ccccc2c1/C=N/NC(=O)c1cc(-c2cccs2)[nH]n1
-25%	COc1ccccc1NC(=O)C1=C(C)Nc2ncnn2C1c1ccc(C)o1 (stereo not drawn)
0%	CN(C)c1cc[n+](CC(=O)Nc2ccc([N+](=O)[O-])cc2Cl)cc1
3%	C=CCn1c(CCNC(=O)c2ccccc2F)nnc1SCC(=O)Nc1nc2ccccc2s1
?	CCOc1ccc2[nH]c(=O)c(CN(Cc3ccccc3)C(=O)N3CCCC3)cc2c1
-5%	C=CCC1(O)C(=O)N2C(=C1C(=O)N1CCOCC1)c1ccccc1CC2(C)C (stereo not drawn)
-28%	Cc1cccc(-n2ncc3c(NC(C)C)ncnc32)c1
-11%	CCN(CC)S(=O)(=O)c1cccc(C(=O)NCC(=O)OCC(=O)NCc2ccccc2)c1
-14%	CCCNC(=S)NC1CC2CCCC(C1)N2CC(C)C (stereo not drawn)
?	NC(=O)c1c(N)sc2c1CCCCC2
-7%	CCOc1ccc(NC(=O)CCNc2c(N3CCCC3)c(=O)c2=O)cc1
-27%	Cc1ccc(NC(=O)c2ccc(CSc3ncnc4nc[nH]c34)cc2)c(C)c1
-2%	N=c1c2c(-c3ccccc3)c(-c3ccccc3)n(Cc3ccco3)c2ncn1Cc1ccco1
-11%	O=C(CN1CCOCC1)NC1C2CC3CC(C2)CC1C3 (stereo not drawn)
-9%	CCn1nnnc1SCC(=O)NNC(=O)C1CCCCC1
-3%	Nc1nnc(CC(=O)NCc2ccccc2)s1
-3%	COc1ccccc1NC(=O)C(=O)N1N=C(C(C)C)CC1(O)C(F)(F)F (stereo not drawn)
-9%	CCc1cccc(NC(=O)CCCSc2nc3ccccc3[nH]2)c1
4%	O=C1c2oc3ccccc3c(=O)c2C(c2cccc(Br)c2)N1Cc1ccco1 (stereo not drawn)
-7%	Cc1ccc(N(CC(O)Cn2c3ccccc3c3ccccc32)S(C)(=O)=O)cc1 (stereo not drawn)
-4%	CN(C(=O)c1ccncc1)C1CCS(=O)(=O)C1 (stereo not drawn)
-3%&-6%	O=C(OCCN1CCOCC1)c1cccnc1

HPGD inh	SMILES
25µM*	O=C(O)c1cccc(N2C(=O)c3cccc(Oc4ccc(Cl)cc4)c3C2=O)c1
-13%	CN(C)S(=O)(=O)c1ccc(-c2csnn2)s1
-13%	CCN1CCCC1CN(Cc1cc2ccc(C)c(C)c2[nH]c1=O)C(=O)Nc1ccccc1OC (stereo not drawn)
-11%	CCSc1nnc(Cc2cc(=O)[nH]c(=O)[nH]2)n1-c1ccc(F)cc1
-21%	CCOc1ccc(N2C(=O)C3C4C=CC(CC4)C3C2=O)c([N+](=O)[O-])c1 (stereo not drawn)
-13%	Nc1cc(N)nc(SCC(=O)Nc2ccc3c(c2)OCCCO3)n1
-15%	O=c1oc(-c2ccccc2)nc2ccsc12
-1%	O=C(O)C1CC(=O)N(Cc2ccccc2)C1 (stereo not drawn)
2%	CC(=O)ON(C(C)=O)S(=O)(=O)c1ccc(Cl)cc1
?	O=C(Nc1nncs1)C1COc2ccccc2O1 (stereo not drawn)
-7%	Cc1nc2ccccc2c(=O)n1NC(=O)/C=C/c1ccccc1Cl
-10%	O=C(Cc1csc(-c2ccccc2)n1)Nc1ccc(C(F)(F)F)cc1
-20%	COc1cc(/C=C2/SC(=S)N(CC(=O)Nc3cccnc3)C2=O)cc(OC)c1OC
?	COc1ccc(CCCC(=O)NC2CCCCC2)cc1
-8%	FC(F)(F)c1cccc(Oc2cc(C(F)(F)F)nc(-c3ccccn3)n2)c1
-8%	CCCC(=O)n1nc(-c2ccccc2)nc1N
-24%	COC(=O)c1ccc(C(=O)OC)c(-n2c(=O)c3ccccc3c3ccccc3c2=O)c1
-27%	COc1ccc(-n2c(COc3ccc4ccccc4c3)nnc2SCC(=O)NCc2ccco2)cc1
-19%	CCOc1ccccc1NC(=O)C1CCN(c2ccc(S(=O)(=O)N3CCCC3)cc2)CC1
8.9µM*	O=C(O)c1ccc2oc(SCC(=O)N3CCCCC3)nc2c1
-3%	CSCCC(NC(=O)c1ccc([N+](=O)[O-])cc1Cl)C(=O)OCC(=O)N(C)C (stereo not drawn)
-12%	COc1ccc(Cn2c(-c3ccc(C)cc3)nc3c(c(=O)c4ccccc4n3C)c2=O)cc1
-13%	Cc1ccc(-n2c(SCC(=O)OC(C)C)nnc2-c2cnccn2)cc1
-6%	COc1cc(CN2CC(=O)N(c3ccc(C)cc3)C2=S)cc(OC)c1OC
-26%	CCCCC(=O)Nc1cccc(-c2csc(-c3ccccc3)n2)c1
-11%	C=CCn1c(C)cc(C(=O)CN2C(=O)c3ccccc3C2=O)c1C
-9%	CN(C)CCCC(C)(O)C(C)(C)c1ccccc1 (stereo not drawn)
-7%	CN1C(=O)NC(c2cccc(O)c2)C(C(=O)c2cccs2)C1(O)C(F)(F)F (stereo not drawn)
-2%	CC(C)Cn1c(CN(Cc2ccccc2)Cc2ccccc2)nc2c1c(=O)n(C)c(=O)n2C
-6%	Cc1nn(CC(=O)NCc2cc3ccccc3[nH]2)c(C)c1[N+](=O)[O-]

HPGD inh	SMILES
-27%	Cn1c(NCc2ccccc2)nc2c1c(=O)n(Cc1ccc(Br)cc1)c(=O)n2C
-10%	COc1ccc(S(=O)(=O)NN=C2CCCCC2)cc1
-4%	Cc1ccc(SCc2nnc(NC(=O)c3ccccc3)s2)cc1
-2%	FC(F)(F)c1nc2ncc(Cl)cc2[nH]1
-7%	CCCNC(=O)NC(C)C12CC3CC(CC(C3)C1)C2 (stereo not drawn)
-18%	O=[N+]([O-])c1ccc(NC(=S)NCCc2ccc(F)cc2)cc1
-19%	Cn1c(C(=O)OC(C(=O)NC2CCCCC2)c2ccncc2)cc2sccc21 (stereo not drawn)
22µM*	COc1cccc(C(c2c(C)[nH]n(-c3ccccc3)c2=O)c2c(C)[nH]n(-c3ccccc3)c2=O)c1OC
-1%	O=C(CCCSc1nc2ccccc2[nH]1)N1CCN(c2ccccc2)CC1
-10%	CCOC(=O)C1=C(C)NC2=C(C(=O)CCC2)C1c1coc2ccccc2c1=O (stereo not drawn)
-28%	Fc1ccccc1CNC(=S)Nc1ccc(Cl)cc1

Single values from the entries so far:
Entry of Cn1c(NCc2ccccc2)nc2c1c(=O)n(Cc1ccc(Br)cc1)c(=O)n2C under HPGD inh: -27%
Entry of O=[N+]([O-])c1ccc(NC(=S)NCCc2ccc(F)cc2)cc1 under HPGD inh: -18%

HPGD inh, hit marks shown above.
HPGD inh	SMILES
16µM*	Cc1c(C(=O)N2CCCCC2)nnn1-c1nonc1N
25µM*	O=C(O)c1cccc(N2C(=O)c3cccc(Oc4ccc(Cl)cc4)c3C2=O)c1
8.9µM*	O=C(O)c1ccc2oc(SCC(=O)N3CCCCC3)nc2c1
22µM*	COc1cccc(C(c2c(C)[nH]n(-c3ccccc3)c2=O)c2c(C)[nH]n(-c3ccccc3)c2=O)c1OC
